D2 potentiator = potentiates the human D2 dopamine receptor allosterically; actives 0.23% (n = 360,000); DiscoveRx D2 beta-arrestin cells, luminescence, 90 min; 100% = 57 uM dopamine signal; potentiation, % (concentration not given with the values); active = potentiation of 50% or more; inconclusive = 30% to 50%; inactive = 30% or less;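 also: compound concentration not given in the record; tested on top of an EC20 dose of dopamine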
Target sequence (P14416 whole entry, looked up): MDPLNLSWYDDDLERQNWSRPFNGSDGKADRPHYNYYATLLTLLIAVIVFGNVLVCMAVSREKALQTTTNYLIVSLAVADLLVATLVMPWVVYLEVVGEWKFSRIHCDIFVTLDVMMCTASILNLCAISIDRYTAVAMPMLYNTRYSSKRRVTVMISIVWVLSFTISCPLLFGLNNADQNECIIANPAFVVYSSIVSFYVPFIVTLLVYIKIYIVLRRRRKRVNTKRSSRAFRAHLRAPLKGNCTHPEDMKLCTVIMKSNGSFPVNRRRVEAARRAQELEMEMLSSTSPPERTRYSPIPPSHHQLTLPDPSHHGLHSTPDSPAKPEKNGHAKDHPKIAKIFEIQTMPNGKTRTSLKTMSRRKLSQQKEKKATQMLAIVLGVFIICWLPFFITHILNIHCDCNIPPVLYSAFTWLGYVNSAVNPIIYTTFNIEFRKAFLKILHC
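PathHunter beta-arrestin assay in DiscoveRx D2 cells. Compounds were added with an EC20 of dopamine (50 nM final) for 90 min at 37 deg C. Luminescence was read 1 h after detection reagent, with 57 uM dopamine as the EC100 control.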
D2 agonist = activates the human D2 dopamine receptor | DiscoveRx PathHunter D2 beta-arrestin, luminescence, 90 min; 100% = 57 uM dopamine signal | activation, % (concentration not given with the values) | actives 0.084% (n = 360,000) | AID 624465; in the data active = activation above about 40%; inconclusive = about 15% to 40%; inactive = below about 15%; also: compound concentration not given in the record; the text of the record calls up to 30% inactive
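Agonist mode: compounds alone added to overnight-plated D2 PathHunter cells for 90 min at 37 C, with 57 uM final dopamine (EC100) defining full response. Beta-arrestin recruitment detected by chemiluminescent reagent, read after 1 h at ambient temperature.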
Six1-Eya2 blk = Six1/Eya2 interaction inhibition; Q15475+O00167; AlphaScreen GST-Six1/His-Eya2 binding, biochemical; stronger effect = lower value; control for the full effect not named in the record; activity change, % (no concentration beside the values); actives 0.56% (n = 360,000); AID 651725; in the data active = activity change below about -65%; inconclusive = about -30% to -65%; inactive = above about -30%; also: % is scaled to controls: 0 for no effect and ±100 for the full control effect; compound concentration not given in the record
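Homogeneous AlphaScreen proximity assay pairing GST-Six1 with His-tagged Eya2 (added as 5X mix: 250 nM and 500 nM) in 50 mM Tris pH 8.0, 300 mM NaCl, 1 mM TCEP. Glutathione donor and nickel acceptor beads; 1 h, 37 °C, dark.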
TRPML1 ag = activates the human TRPML1 channel. Q9GZU1. TRPML1-expressing cells, Ca2+ dye fluorescence, FDSS; host cell line not named in the record; reference of the full effect not given here. activation, % (test concentration not listed). actives 0.12% (n = 410,000). AID 624414; in the data active = activation above about 50%; inconclusive = about 30% to 50%; inactive = below about 30%; also: 0% is about no effect; the text of the record puts the active cut at 80%
Target sequence (Q9GZU1 whole entry, looked up): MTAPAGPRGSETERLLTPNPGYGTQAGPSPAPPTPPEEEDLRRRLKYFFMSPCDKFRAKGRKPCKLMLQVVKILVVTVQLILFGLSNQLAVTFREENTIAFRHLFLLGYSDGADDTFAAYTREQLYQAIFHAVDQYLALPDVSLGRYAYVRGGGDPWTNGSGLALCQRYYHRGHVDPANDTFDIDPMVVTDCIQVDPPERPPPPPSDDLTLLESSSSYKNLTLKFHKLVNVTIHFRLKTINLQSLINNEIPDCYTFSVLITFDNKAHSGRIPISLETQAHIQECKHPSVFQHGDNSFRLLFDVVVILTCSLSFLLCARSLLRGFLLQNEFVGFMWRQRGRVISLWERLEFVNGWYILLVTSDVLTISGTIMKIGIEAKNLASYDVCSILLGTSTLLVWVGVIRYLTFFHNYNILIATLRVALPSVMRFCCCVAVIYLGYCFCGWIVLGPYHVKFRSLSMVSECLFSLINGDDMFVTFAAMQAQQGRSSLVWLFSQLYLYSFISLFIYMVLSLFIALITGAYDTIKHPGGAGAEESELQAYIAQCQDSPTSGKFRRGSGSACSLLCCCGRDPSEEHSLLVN
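In this qHTS format, compounds were pin-transferred onto Ca8-dye-loaded TRPML1-DL cells induced with Tet overnight, and intracellular Ca2+ fluorescence was recorded kinetically for 110 s after a 10 s baseline. A subsequent 4uM final 54-4 (EC80) addition followed by a second 110 s read served as the antagonist phase.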
PINK1 modulator = modulators of PINK1 expression; PINK1 immunofluorescence, high-content cytometry, 24 h; AID 624263; Potency, µM (top dose mostly 76.6 µM), without a hit: at the top dose activation (PINK1 increase), usual class: activators; actives 0.2% (n = 410,000); active = well fitted activation curve with a large enough effect; inconclusive = small, poorly fitted or top-dose-only effect; inactive = flat fitted curve, though single readings scatter; cell line not stated here;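 also: potency is read from the fitted curve at half-maximal effect; % of control where 0% means no effect; nearly all actives have a fitted effect of over 65% in size; a mitochondrial uncoupler was the plate control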
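Decision-based qHTS: stable cells, 24 h exposure to five compound concentrations, CCCP as control. Fixed cells stained for PINK1 plus nuclear, mitochondrial and cell markers, cytometer read.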
CtBP-E1A inh = CtBP/E1A binding inhibition. AlphaScreen GST-E1A/His-CtBP binding, 1536-well; stronger effect = lower value; control for the full effect not named in the record. activity change, % (test concentration not listed). AID 651724. actives 0.49% (n = 340,000); in the data active means activity change below about -65%; inconclusive means about -30% to -65%; inactive means above about -30%; also: % is scaled to controls: 0 for no effect and ±100 for the full control effect; compound concentration not given in the record
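Protein mix (5X: 125 nM each GST-E1A, His-CtBP) was incubated with pinned compound 2 h at 37 deg C in dark, in 50 mM Tris pH 8.0 buffer with 300 mM NaCl. Glutathione donor and nickel acceptor beads followed; AlphaScreen signal read after 1 h.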
* hit, by the source's call; ? = inconclusive; nt = no result given; & = joins results of further samples; [ ] = another dose, or the depositor's remark.

Start of the data: the first 15 records, ahead of the listing:
Under each structure: D2 potentiator | CtBP-E1A inh | PINK1 modulator | TRPML1 ag | D2 agonist | Six1-Eya2 blk
CCCCn1c(N)c(N(CCOC)C(=O)c2ccc(-c3ccc(Cl)cc3)o2)c(=O)[nH]c1=O
  -8 | -18 | -1.3% | 0.0 | -2.3 | 0
Cc1ccc(S(=O)(=O)Nc2ccccc2-c2nc3ccccc3[nH]c2=O)cc1
  1 | -21 | 5.9% | -0.3 | -1.6 | -15
COc1ccc(CN(C)C[C@H]2OCCCC[C@H](C)Oc3ccc(NC(=O)CCC(F)(F)F)cc3C(=O)N([C@@H](C)CO)C[C@@H]2C)cc1
  1 | -5 | 5.1% | 0.3 | 2.9 | -4
O=C(Nc1nnc([C@@H]2C[C@H](O)[C@@H](CO)O2)s1)c1ccc(Oc2ccccc2)cc1
  -4 | -3 | 0.5% | 0.2 | -4.4 | 4
Cc1ccc(CNC(=O)CCSCCC(=O)NCc2ccc(C)cc2)cc1
  -7 | 9 | 0.7% | -0.7 | 0.2 | 7
CN(C(=S)NC1CCCCC1)C1(c2ccccc2Cl)CCCCC1=O (stereo unspecified)
  -3 | 2 | 10.0% | 1.1 | 3.7 | 13
COc1cc(/C=N/NC(=O)CN2CCCCC2)ccc1OCc1ccccc1
  15 | 6 | 4.1% | 0.2 | 0.4 | 0
O=C(CN1C(=O)NC2(CCCC2)C1=O)NCC1CCCO1 (stereo unspecified)
  3 | 15 | -0.3% | 0.8 | -0.1 | 5
Cc1nc2ccc(NC(=O)c3ccc([N+](=O)[O-])cc3)cc2s1
  18 | 5 | 2.7% | 2.0 | 9.7 | -2
CCOC(=O)c1nnn(-c2nonc2N)c1-c1ccccc1Cl
  -1 | nt | 1.4% | 3.4 | -2.3 | 0
O=S(=O)(c1ccccc1)N(C1=NCCS1)S(=O)(=O)c1ccccc1
  -6 | -1 | 14%[38.3 µM] | -0.1 | -0.2 | 9
COc1cccc(S(=O)(=O)N(C)C[C@@H]2Oc3cc(C#CCN(C)C)ccc3S(=O)(=O)N([C@H](C)CO)C[C@@H]2C)c1
  nt | -3 | 0.3% | nt | -0.8 | -1
O=C(Nc1ccccc1C(=O)NCc1cccnc1)c1cccc([N+](=O)[O-])c1
  -1 | -3 | 8.1% | -0.4 | 4.1 | 0
C/C=C\C=C/C(=O)Nc1cccc(C2=NOC3(C2)C[C@@H](C(N)=O)N(C(=O)/C=C/CC)C3)c1 (stereo partly specified)
  -27 | -18 | 5.0% | -0.6 | 1.4 | 0
Cc1ccc(C(=O)N2NC(c3ccccc3F)C3C(=O)N(c4cccc(C)c4)C(=O)C32)cc1 (stereo unspecified)
  -5 | -27 | -2.8% | 0.0 | -0.2 | 1

The list itself, from the first entry:
Under each structure: D2 potentiator | CtBP-E1A inh | PINK1 modulator | TRPML1 ag | D2 agonist | Six1-Eya2 blk
CCCCn1c(N)c(N(CCOC)C(=O)c2ccc(-c3ccc(Cl)cc3)o2)c(=O)[nH]c1=O
  -8 | -18 | -1.3% | 0.0 | -2.3 | 0
Cc1ccc(S(=O)(=O)Nc2ccccc2-c2nc3ccccc3[nH]c2=O)cc1
  1 | -21 | 5.9% | -0.3 | -1.6 | -15
COc1ccc(CN(C)C[C@H]2OCCCC[C@H](C)Oc3ccc(NC(=O)CCC(F)(F)F)cc3C(=O)N([C@@H](C)CO)C[C@@H]2C)cc1
  1 | -5 | 5.1% | 0.3 | 2.9 | -4
O=C(Nc1nnc([C@@H]2C[C@H](O)[C@@H](CO)O2)s1)c1ccc(Oc2ccccc2)cc1
  -4 | -3 | 0.5% | 0.2 | -4.4 | 4
Cc1ccc(CNC(=O)CCSCCC(=O)NCc2ccc(C)cc2)cc1
  -7 | 9 | 0.7% | -0.7 | 0.2 | 7
CN(C(=S)NC1CCCCC1)C1(c2ccccc2Cl)CCCCC1=O (stereo unspecified)
  -3 | 2 | 10.0% | 1.1 | 3.7 | 13
COc1cc(/C=N/NC(=O)CN2CCCCC2)ccc1OCc1ccccc1
  15 | 6 | 4.1% | 0.2 | 0.4 | 0
O=C(CN1C(=O)NC2(CCCC2)C1=O)NCC1CCCO1 (stereo unspecified)
  3 | 15 | -0.3% | 0.8 | -0.1 | 5
Cc1nc2ccc(NC(=O)c3ccc([N+](=O)[O-])cc3)cc2s1
  18 | 5 | 2.7% | 2.0 | 9.7 | -2
CCOC(=O)c1nnn(-c2nonc2N)c1-c1ccccc1Cl
  -1 | nt | 1.4% | 3.4 | -2.3 | 0
O=S(=O)(c1ccccc1)N(C1=NCCS1)S(=O)(=O)c1ccccc1
  -6 | -1 | 14%[38.3 µM] | -0.1 | -0.2 | 9
COc1cccc(S(=O)(=O)N(C)C[C@@H]2Oc3cc(C#CCN(C)C)ccc3S(=O)(=O)N([C@H](C)CO)C[C@@H]2C)c1
  nt | -3 | 0.3% | nt | -0.8 | -1
O=C(Nc1ccccc1C(=O)NCc1cccnc1)c1cccc([N+](=O)[O-])c1
  -1 | -3 | 8.1% | -0.4 | 4.1 | 0
C/C=C\C=C/C(=O)Nc1cccc(C2=NOC3(C2)C[C@@H](C(N)=O)N(C(=O)/C=C/CC)C3)c1 (stereo partly specified)
  -27 | -18 | 5.0% | -0.6 | 1.4 | 0
Cc1ccc(C(=O)N2NC(c3ccccc3F)C3C(=O)N(c4cccc(C)c4)C(=O)C32)cc1 (stereo unspecified)
  -5 | -27 | -2.8% | 0.0 | -0.2 | 1
COc1ccc(OC)c(NC(=O)CC2SC(=Nc3ccccc3)N(CCc3ccccn3)C2=O)c1 (stereo unspecified)
  -7 | -8 | -0.6% | 3.4 | -3.3 | 0
Cc1cc(N2CCCCC2)nc(N)n1
  -7 | -2 | -0.8% | 56* | -4.9 | 2
COC(=O)NNC(=O)CCCOc1ccc(Cl)cc1Cl
  -14 | 1 | 0.4% | -0.2 | -2.8 | 4
CS(=O)(=O)c1ccc2nc(NC(=O)CCNC(=O)c3ccc(Cl)cc3)sc2c1
  -10 | 6 | 12% | -0.1 | -5.5 | 0
COc1ccc(/C=C/c2noc(-c3ccccc3OC(C)=O)n2)cc1
  -8 | 1 | 7.6% | 1.6 | -3.1 | 9
CC(C)[C@@H]1N[C@]2(C(=O)Nc3ccccc32)[C@@H]2C(=O)N(c3cccc(C(F)(F)F)c3)C(=O)[C@@H]21
  -15 | 3 | 4.0%[38.3 µM] | -0.4 | -4.1 | -3
N#Cc1ccsc1NC(=O)CN1CCN(c2ccccn2)CC1
  5 | -8 | -2.5% | 1.5 | ? | 4
Cc1ccc(NC(=O)CSCC(=O)Nc2ccccc2C(=O)NC2CC2)cc1
  11 | 9 | 1.3% | -0.5 | -1.6 | -1
O=C(CSc1nc2[nH]ncc2c(=O)n1-c1ccc(Cl)c(Cl)c1)NCc1ccccc1Cl
  -5 | 0 | 1.0% | 0.8 | 0.7 | 2
O=C(NCCCn1ccnc1)c1cc(C(=O)C2CC2)c[nH]1
  0 | 0 | -0.1%[38.3 µM] | -0.5 | -0.5 | -3
COC(=O)c1ccc2nc(-c3ccc(OC)c(OC)c3)c(Cc3ccc(OC)cc3C)n2c1
  -4 | -14 | 6.4% | -0.2 | -3.0 | -1
Cc1cccc(C(=O)NCCC(=O)N2CCc3ccccc3C2)c1
  -5 | -4 | 2.2% | 1.0 | -1.8 | 3
O=C(c1cccs1)N1CCN(c2ccc(F)cc2)CC1
  -8 | -3 | -0.3% | 0.5 | -2.3 | -6
CC(CN1CCOCC1)OC(=O)c1ccc(C(C)(C)C)cc1 (stereo unspecified)
  -37 | nt | 4.9% | nt | 0.1 | 0
S=C(Nc1ccc(Br)cc1)Nc1ccc2c(c1)OCCO2
  -10 | 2 | 7.8% | 0.4 | -0.4 | -5
COc1ccc(N2C(=O)NC(NS(=O)(=O)c3ccc(NC(C)=O)cc3)(C(F)(F)F)C2=O)cc1 (stereo unspecified)
  -8 | 2 | -0.7%&2.7% | 1.0&0.6 | -5.4 | 1
CN(CC(=O)N(C)CC(=O)Nc1c(Cl)cccc1Cl)Cc1ccc(Br)s1
  -7 | nt | 1.1% | -1.0 | -1.8 | 4
Cc1ccc(NS(=O)(=O)c2cc(C(=O)Nc3cccnc3)ccc2C)cc1
  -6 | 8 | 2.4% | 1.8 | -1.8 | 0
CC(=O)Nc1ccc(N=Cc2c(O)c(C(=O)Nc3ccccc3)cc3ccccc23)cc1
  1 | nt | ? | 30 | 9.1 | -1
COc1ccc(C(C)(C)C)cc1NC(=O)CCN1C(=O)C2CCCCC2C1=O (stereo unspecified)
  -8 | 8 | -0.6% | -0.1 | -4.5 | -4
Nc1nc2nccc(-c3ccccn3)n2n1
  -4 | 1 | -0.1% | 0.1 | -2.4 | -3
Cc1ccc(C(C)C)c(OCC(O)CN2CC(C)OC(C)C2)c1 (stereo unspecified)
  -23 | 4 | 1.2% | -1.1 | -2.4 | 1
CSc1nc(C)cc(OCCNS(=O)(=O)c2cc(C)ccc2C)n1
  0 | 2 | -0.8% | -1.3 | -2.1 | 6
COc1cc2c(cc1OC)CN(C(=O)CCNS(=O)(=O)c1ccccc1F)CC2
  -22 | 8 | 2.9% | 0.1 | 5.5 | 0
O=C(Nc1ccc(Cl)c(Cl)c1)OCCNC(=O)c1ccncc1
  -3 | 9 | 3.3% | 1.4 | -2.0 | -8
O=C1CSC(c2cccc([N+](=O)[O-])c2)N1c1ccccc1F (stereo unspecified)
  5 | 5 | 1.6% | -1.4 | 2.5 | -1
Cc1ccccc1NC(=O)COC(=O)c1c(C)nn(-c2ccccc2)c1C
  -1 | 9 | -1.2% | -0.6 | 0.1 | 0
CC(=O)NC1C(=O)Nc2c(C)cc(C)cc21 (stereo unspecified)
  -3 | 1 | 3.5% | 1.1 | -5.5 | 3
CCc1sc(C(=O)Nc2ccccc2N2CCOCC2)cc1C
  -6 | 20 | -1.6% | 0.8 | 1.6 | 0
COC(=O)C1=C(C(=O)OC)[C@@H]2N(C)c3ccc(OC)cc3[C@@]23C[C@@H](C(=O)OC)N(C(=O)COCc2ccccc2)C3=N1
  -31 | 1 | 4.2% | -0.9 | 1.0 | -11
Cc1cc(NC(=O)NC(=O)c2ccccc2NC(=O)CN)ccc1Oc1ncc(Br)cn1
  5 | 0 | 1.8% | 1.3 | 3.5 | -4
CSc1nc(-c2ccc(C)cc2)nc(N)c1C#N
  -7 | nt | 1.0% | 0.2 | -3.7 | -4
O=CNCCCc1nc2ccccc2n1Cc1cccc2ccccc12
  -2 | 0 | ? | 0.9 | -1.1 | 4
O=C(CSc1nc2ccccc2[nH]1)Nc1cc(C(F)(F)F)ccc1N1CCOCC1
  -3 | -3 | 3.6% | 1.5 | -9.3 | 6
CCOc1ccc(OCC)c(-c2c(=O)n(OCc3ccccc3Br)c3ccccc3[n+]2[O-])c1
  -10 | -17 | 5.5%[38.3 µM] | 0.6 | -5.8 | -19
O=C(Nc1nc(-c2ccccn2)cs1)c1ccc(Cl)s1
  -7 | ? | 0.6% | -0.3 | -4.0 | ?
Cc1cc(-c2ccccc2)nc(Cl)c1C#N
  -8 | 38 | 0.7% | -0.5 | -0.1 | 45

Source: PubChem BioAssay
